Screens deposited in PubChem BioAssay by several laboratories.
Mtb bLac sens: beta-lactam sensitization of Mtb H37Rv, H37Rv. M. tuberculosis H37Rv growth with meropenem, percent inhibition; hits of this screen are not shown here. inhibition, % at 25 µM. 0.27% of 330,000 active;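 active means about 74% or more and at least 40 points above the plate without the antibiotic, then above 30% in a dose series; inconclusive means first-round hits that could not be retested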;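 further: growth measured after seven days incubation then overnight dye step; 0% = bacteria only wells and 100% = bacteria with antibiotic; twin plates without the antibiotic show which effects depend on it; some results filed as inactive read as strong as hits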
Arbovirus inh: antivirals against arbovirus infection, primary screen, cell-based, full library, 10K replicate subset | arbovirus infection cell-based antiviral screen | inhibition, % at 10 µM | 0.37% of 200,000 active | AID 1251, 2008;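 active means inhibition from about 30%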;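 further: bluetongue infection of BSR cells; cell survival read as ATP light after 72 h; 0% = infected wells without compound and 100% = uninfected wells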
Mtb growth: M. tuberculosis H37Rv growth inhibitors, H37Rv strain (AID 1626). M. tuberculosis H37Rv growth inhibition; higher % means a stronger effect. inhibition, % at 10 µM; hits with a dose series show IC50 in µM. 0.95% of 220,000 active;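 active means confirmed in a dose series; inconclusive means inhibition above 80% but not taken into the dose series; inactive means below 80% or under 30% at every dose of the series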;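 further: bacteria incubated seven days before Alamar blue readout; 0% = bacteria only wells and 100% = bacteria with antibiotic wells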
YopH PTP inh: YopH tyrosine phosphatase inhibitors, primary screen, biochemical, fluorescence Ex485/Em525; YopH tyrosine phosphatase [Yersinia enterocolitica]; inhibition, %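 (about 10 µM by stock and volumes)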; 0.16% of 140,000 active;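 active means inhibition of 50% or more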;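 further: controls were vehicle for no effect and minimum signal wells for full effect; inactives centre near -20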
RecA splice inh: Mtb RecA intein splicing inhibitors, primary screen, biochemical, fluorescence, HTS; cell-free RecA intein splicing; 0.75% of 290,000 active; Protein RecA (Mycobacterium tuberculosis (strain ATCC 25618 / H37Rv)), P9WHJ3; inhibition, %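 (about 9 µM by stock and volumes)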; in the data active means inhibition above about 30%; inconclusive means no clear call, values can overlap the other calls;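 further: 0% = vehicle wells and 100% = reference inhibitor control wells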
Target sequence (P9WHJ3 whole entry, looked up, canonical isoform): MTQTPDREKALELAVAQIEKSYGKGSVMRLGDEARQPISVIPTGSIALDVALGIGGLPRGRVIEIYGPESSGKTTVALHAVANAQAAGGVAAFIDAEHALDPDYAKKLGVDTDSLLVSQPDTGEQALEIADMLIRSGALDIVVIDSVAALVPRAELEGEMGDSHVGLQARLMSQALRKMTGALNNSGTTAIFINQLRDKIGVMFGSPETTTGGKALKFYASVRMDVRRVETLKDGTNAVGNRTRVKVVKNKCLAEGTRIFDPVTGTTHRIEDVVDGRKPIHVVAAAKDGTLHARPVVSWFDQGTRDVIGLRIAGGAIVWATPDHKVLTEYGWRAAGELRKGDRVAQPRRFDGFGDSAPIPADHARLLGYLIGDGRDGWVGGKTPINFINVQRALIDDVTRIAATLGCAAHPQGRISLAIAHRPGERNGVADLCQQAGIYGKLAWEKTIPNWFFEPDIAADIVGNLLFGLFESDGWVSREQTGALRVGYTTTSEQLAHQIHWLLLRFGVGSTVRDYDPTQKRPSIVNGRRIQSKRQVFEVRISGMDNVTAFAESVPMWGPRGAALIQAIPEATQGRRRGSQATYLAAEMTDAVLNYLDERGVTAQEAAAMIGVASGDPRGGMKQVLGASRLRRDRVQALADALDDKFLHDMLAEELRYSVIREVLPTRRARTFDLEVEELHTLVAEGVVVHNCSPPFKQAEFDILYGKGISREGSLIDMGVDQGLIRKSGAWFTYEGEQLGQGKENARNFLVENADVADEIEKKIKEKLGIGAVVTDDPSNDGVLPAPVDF
Arbovirus inh repeat: second read-out of Arbovirus inh, no call of its own (marks repeat the call); inhibition, %; measured here: 10K subset replicate screen; many hits read low in the repeat;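 first of two repeat runs on a subset; 0% = infected and 100% = uninfected wells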
An asterisk follows results filed as active; ? = inconclusive; · = no result given.

SMILES | Mtb bLac sens | Arbovirus inh | Mtb growth | YopH PTP inh | RecA splice inh | others
CCOC(=O)C1CCN(C(=O)CCNC(=O)c2ccccc2OC)CC1 | -7.3 | · | · | · | 2.0
C=CCOc1ccc(C2=NO[C@@H]3[C@@H]4C[C@@H]([C@H]5C(=O)N(C)C(=O)[C@@H]45)[C@H]23)cc1 | -0.8 | · | -1.0% | · | -0.8
CCOP(=O)(OCC)C(Nc1cc(Cl)cc(Cl)c1)c1cccc(O)c1 (stereo not drawn) | -1.4 | -6.1 | 1.6% | · | 4.9
COc1ccc(C2c3[nH]c4ccccc4c3CCN2C(=O)c2cc3ncccn3n2)c(F)c1 (stereo not drawn) | -0.4 | -14.4 | 74.4% | · | 12.5
CCCCOC(=O)c1ccc(-c2ccc(/C=N/NC(=S)NCC)o2)cc1 | 42.2 | 12.5 | -0.5% | -25.5 | -2.4
CC(=O)c1cccc(N=Cc2c(O)ccc3ccccc23)c1 | 7.1 | · | · | · | 9.3
COc1ccc(Oc2cc(C)c3ccccc3n2)cc1 | 53.8 | 5.7 | 7.1% | 15.7 | 7.8
COc1ccccc1N(C)S(=O)(=O)c1ccc(C(=O)OCC(=O)c2c[nH]c3ccccc23)cc1 | 6.3 | -2.4 | 7.7% | -15.9 | 0.4
Cc1cnc(CN2CCc3c([nH]c4ccccc34)C2C2CCCCC2)[nH]1 (stereo not drawn) | 4.1 | -10.3 | -3.9% | · | 2.5
O=C1c2ccccc2C(=O)N1CCCc1nc2ccccc2c(=O)n1Cc1ccco1 | -2.7 | -3.8 | -7.5% | -30.0 | -2.7 | Arbovirus inh repeat=1.0
CC1(C)NC(=O)N(CC(=O)OCC(=O)Nc2cc(S(=O)(=O)N3CCCCCC3)ccc2Cl)C1=O | -2.1 | 2.3 | 4.1% | -25.8 | -6.4
COC(=O)c1ccc(CN2C(=O)c3ccccc3C2=O)cc1 | -4.1 | · | · | · | -0.7
CC1=CC(=Nc2c(C)n(C)n(-c3ccccc3)c2=O)C=CC1=O | 0.0 | · | -3.3% | · | 56.7*
CCC(Oc1ccccc1)C(=O)Nc1ccccc1C(=O)N1CCN(C)CC1 (stereo not drawn) | -1.4 | · | · | · | -0.4
CCC(=O)NNc1nc2c(C)c(C)ccc2s1 | 3.4 | -12.8 | 12.3% | · | -2.0
COc1ccc(NC(=O)c2ccc(NCC3CCCO3)c([N+](=O)[O-])c2)cc1 (stereo not drawn) | -1.5 | -2.7 | -7.9% | · | 3.1
O=C(Cc1cn2ccsc2n1)Nc1ccccc1Oc1ccccc1 | 41.8 | -6.8 | -6.2% | -11.9 | 3.5
Nn1c(SCC(=O)Nc2ccc(OC(F)F)cc2)nnc(Cc2ccccc2)c1=O | -23.2 | · | · | · | 9.0
O=C(OC1CCOC1=O)c1cccc(S(=O)(=O)Nc2ccc(F)cc2)c1 (stereo not drawn) | 3.6 | 3.0 | 3.4% | -4.9 | 1.0
CCCCNc1c(-c2ccc(SC3CCCCC3)cc2)nc2ccccn12 | 98.9 | · | · | · | -5.8
O=C1NCC(c2ccccc2)C1C(=O)N/N=C\c1ccc(-c2cccc(Cl)c2Cl)o1 (stereo not drawn) | 34.9 | -35.9 | 1.6% | 3.9 | 24.7
COC(=O)c1ccc(COC(=O)CNC(=O)CNC(=O)c2ccc(C)cc2)cc1 | 2.5 | 0.2 | 6.3% | · | -0.9
O=S(=O)(c1cccc2nsnc12)N1CCN(c2ncccn2)CC1 | -0.8 | 3.7 | -0.1% | 7.2 | -1.6
Oc1ccccc1CNc1ccc(Br)cn1 | 1.4 | -9.6 | 2.3% | -22.7 | 7.9
CC1=C(C/C=C(\C)CCC[C@H](C)CCC[C@H](C)CCCC(C)C)C(=O)c2ccccc2C1=O | -1.9 | · | -12.4% | · | -0.3
CC(C)(C)NC(=O)c1ccc(COc2ccccc2Br)o1 | 39.3 | -0.7 | 4.3% | -34.2 | -3.5
CSc1ccc(-c2nc(O)c3cnccn23)cc1 | 7.2 | 0.8 | 7.1% | · | -17.8
COc1ccccc1CNC(=O)COC(=O)Cc1c[nH]c2ccccc12 | 1.4 | · | · | · | 1.4
CC(C)Cc1cc(C(=O)Nc2cc(C(F)(F)F)ccc2Cl)no1 | 60.6 | 1.4 | -1.1% | 0.7 | 4.0
CCCNc1nc(N2CCCC2)nc(N2CCCC2)n1 | 6.1 | -1.4 | 5.9% | · | 0.1
O=C(Cn1nc(-c2ccccc2)c2ccccc2c1=O)NCCN1CCOCC1 | -9.4 | -2.1 | 3.2% | -15.2 | -0.1
CCOCCCNC(=O)/C(C#N)=C/c1ccc(C(=O)OC)cc1 | -3.7 | 0.6 | 4.8% | · | 2.2
CC(/C=C1\SC(=O)N(CC(=O)Nc2ccc(O)cc2)C1=O)=C\c1ccccc1 | 1.0 | -21.8 | -0.7% | -22.9 | 0.0
CCc1ccccc1NC(=O)C(CC)Sc1nc2cc3c(cc2c(=O)n1Cc1ccco1)OCO3 (stereo not drawn) | 0.1 | -0.8 | -15.9% | 14.8 | -0.7
CCn1c(SCC(=O)Nc2ccc(OC)cc2OC)nc2nc3c(cc2c1=O)COC(C)(C)C3 | -5.5 | · | -10.9% | · | 0.3
CCC12CCCN3CCC4(C(=C(C(=O)OC)C1)Nc1ccccc14)C32 (stereo not drawn) | · | -25.1 | 9.7% | -33.5 | 2.2
COC(=O)C(C)Sc1snnc1-c1ccccc1 (stereo not drawn) | -2.9 | -3.4 | -4.6% | -17.9 | 0.5
Cn1cnc2cc(NC(=O)c3ccc(Cl)cc3)ccc21 | -2.2 | -0.4 | -7.2% | -11.1 | 6.5 | Arbovirus inh repeat=0.1
COc1ccc(C(=O)COC(=O)c2ccccc2NS(=O)(=O)c2ccc(O)c([N+](=O)[O-])c2)cc1 | -0.1 | · | -8.6% | · | 8.0
Cc1cc(SCc2ccccc2C)nc(=O)[nH]1 | 2.3 | · | · | · | -0.4
CCOCCCN(C(=O)c1snc(C(N)=O)c1N)C(C(=O)NCCC(C)C)c1ccc(Cl)cc1 (stereo not drawn) | 2.0 | · | · | · | -2.0
CC(C)C1Oc2cc3oc(=O)ccc3cc2C1=O (stereo not drawn) | -9.0 | -0.3 | -2.9% | · | -0.2
Cc1cc(C)c(C)c(S(=O)(=O)ON2C(=O)c3ccccc3C2=O)c1C | 0.7 | 13.3 | -3.7% | -55.9 | ·
O=C(O)/C(=C\c1ccco1)NC(=O)c1ccccc1 | -9.8 | 1.1 | -3.3% | -23.1 | -2.0
Fc1ccccc1-c1n[nH]c(=S)n1Cc1ccccc1 | 1.0 | · | · | · | 4.9
O=C(CN(Cc1ccco1)C(=O)c1cccc(Cl)c1)Nc1c(Cl)cc(Cl)cc1Cl | · | 11.2 | -4.7% | -37.7 | 3.6
Cc1cc(NC(=O)CCCC(=O)N(c2ccccc2)C(C(=O)NC2CCCCC2)c2cccs2)no1 (stereo not drawn) | -3.2 | -7.8 | -3.8% | 13.9 | 1.7
O=C(NC1CC1)C1CCCN(C(=O)Nc2ccc(F)cc2)C1 (stereo not drawn) | -9.1 | 10.1 | 8.9% | -18.4 | 0.1
CC(/C=C1\SC(=S)N(CCCC(=O)Nc2ccc(C(=O)O)c(O)c2)C1=O)=C\c1ccccc1 | 13.4 | 14.0 | 10.1% | -11.6 | 25.2
Cc1cc(=O)oc(C)c1C(=O)NCc1cccnc1 | -3.9 | -3.1 | -5.7% | 8.4 | 0.5
COc1ccc(N(CC(=O)Nc2cc(OC)cc(OC)c2)S(=O)(=O)c2c(C)n[nH]c2C)cc1 | -3.3 | · | · | · | -1.1
O=C(CNC(=O)N1CC(=O)Nc2ccccc21)Nc1ccc(F)c(Cl)c1 | -1.6 | · | · | · | 0.1
Cn1ccc(NC(=O)CCl)n1 | 94.5 | 8.9 | 60.2% | · | ·
Cc1ccc(C)n1-c1nc(=S)[nH][nH]1 | -3.4 | 0.8 | 1.6% | -4.8 | -0.8
Cc1ccc(CNC(=O)C2(S(=O)(=O)c3ccc(C)cc3)CC2)cc1 | -4.3 | · | · | · | 0.4
O=C1CS/C(=C\[N+](=O)[O-])N1c1ccc(OC(F)(F)F)cc1 | -16.7 | -0.4 | -4.0% | -39.5 | 35.7*
O=C(Cn1cc(C(=O)C2CC2)c2ccccc21)Nc1ccccc1Cl | 19.8 | · | · | · | -2.8
O=Cc1cc(N=Nc2cccc(C(=O)O)c2)ccc1O | -6.2 | 24.2 | -1.2% | · | 3.1
O=C(c1sc2cccc(F)c2c1Cl)N1CCN(c2ncccn2)CC1 | 2.5 | -5.7 | 4.6% | -14.8 | 3.2
CC(N=Cc1c(O)c2ccccc2oc1=O)C(=O)O (stereo not drawn) | 1.3 | 10.7 | 1.9% | · | -0.4

Arranged by number of heavy atoms (falling): 12 of the compounds above.
SMILES | Mtb bLac sens | Arbovirus inh | Mtb growth | YopH PTP inh | RecA splice inh | others
Cc1cc(NC(=O)CCCC(=O)N(c2ccccc2)C(C(=O)NC2CCCCC2)c2cccs2)no1 (stereo not drawn) | -3.2 | -7.8 | -3.8% | 13.9 | 1.7
COc1ccc(N(CC(=O)Nc2cc(OC)cc(OC)c2)S(=O)(=O)c2c(C)n[nH]c2C)cc1 | -3.3 | · | · | · | -1.1
O=C(CN(Cc1ccco1)C(=O)c1cccc(Cl)c1)Nc1c(Cl)cc(Cl)cc1Cl | · | 11.2 | -4.7% | -37.7 | 3.6
O=C(CNC(=O)N1CC(=O)Nc2ccccc21)Nc1ccc(F)c(Cl)c1 | -1.6 | · | · | · | 0.1
O=C(c1sc2cccc(F)c2c1Cl)N1CCN(c2ncccn2)CC1 | 2.5 | -5.7 | 4.6% | -14.8 | 3.2
Cc1ccc(CNC(=O)C2(S(=O)(=O)c3ccc(C)cc3)CC2)cc1 | -4.3 | · | · | · | 0.4
O=C(NC1CC1)C1CCCN(C(=O)Nc2ccc(F)cc2)C1 (stereo not drawn) | -9.1 | 10.1 | 8.9% | -18.4 | 0.1
O=C1CS/C(=C\[N+](=O)[O-])N1c1ccc(OC(F)(F)F)cc1 | -16.7 | -0.4 | -4.0% | -39.5 | 35.7*
O=Cc1cc(N=Nc2cccc(C(=O)O)c2)ccc1O | -6.2 | 24.2 | -1.2% | · | 3.1
CC(N=Cc1c(O)c2ccccc2oc1=O)C(=O)O (stereo not drawn) | 1.3 | 10.7 | 1.9% | · | -0.4
Cc1ccc(C)n1-c1nc(=S)[nH][nH]1 | -3.4 | 0.8 | 1.6% | -4.8 | -0.8
Cn1ccc(NC(=O)CCl)n1 | 94.5 | 8.9 | 60.2% | · | ·

Further entries follow.
SMILES | Mtb bLac sens | Arbovirus inh | Mtb growth | YopH PTP inh | RecA splice inh | others
COc1ccc(N2CCN(C(=O)CNC(=O)c3ccccc3Cl)CC2)cc1 | -1.3 | · | · | · | -1.7
CNC(=O)CSc1nc2cccnc2n1-c1ccc(F)cc1 | -0.2 | · | · | · | 0.4
COc1cc(NC(=O)NCCN2CCN(c3ccccc3)CC2)cc(OC)c1OC | 1.9 | · | · | · | -2.3
COc1cc(/C=C2\C(=O)ON=C2c2ccccc2)cc(Cl)c1O | 2.1 | -14.7 | 6.1% | · | 24.0
CCCNC(=O)c1cc(-c2ccc(OC)cc2)on1 | 2.8 | -6.0 | 9.0% | -9.6 | -0.6
Cc1cc(C)nc(SCC(=O)NN=C2CCCC2)n1 | 2.8 | -0.2 | 5.9% | · | -1.7
NS(=O)(=O)c1ccc(CCNC(=O)C2CCCN(S(=O)(=O)c3cccnc3)C2)cc1 (stereo not drawn) | 3.3 | 3.2 | -8.1% | -46.5 | · | Arbovirus inh repeat=6.5
Cc1nnc(Sc2nc3c(c(=O)n(C)c(=O)n3C)n2Cc2ccccc2Cl)s1 | ? | · | 1.4% | -7.6 | 2.5
NCC[C@H](O)C(=O)N[C@@H]1C[C@H](N)[C@@H](O[C@H]2O[C@H](CN)[C@@H](O)[C@H](O)[C@H]2O)[C@H](O)[C@H]1O[C@H]1O[C@H](CO)[C@@H](O)[C@H](N)[C@H]1O | · | 2.3 | · | -29.0 | ·
C=CCNC(=O)C(=O)NCC(c1ccc2c(c1)OCO2)N1CCOCC1 (stereo not drawn) | -7.2 | · | · | · | -0.7
O=C1CC(N2CCN(c3ccccn3)CC2)C(=O)N1c1ccc(F)cc1 (stereo not drawn) | 2.2 | 4.9 | 1.4% | · | -1.3
Cc1ccc(-c2nnc(SCc3ccc(C#N)cc3)n2Cc2ccco2)cc1 | 3.7 | -1.2 | 7.0% | 19.9 | 2.4

Not all compounds are listed; the hit share may differ from the screen's.
